miR-21 reporter: miR-21 reporter, rising signal; HeLa miR-21 FLuc reporter, luciferase, 48 h; Potency, µM (titrated, usually from 38.3 µM), inactives show at the highest dose reporter change, positive = more light; 340,000 tested, under 10 active; AID 2288; active = well fitted rising curve with a large enough effect; inconclusive = small, poorly fitted or top-dose-only effect; inactive = no such curve, though single readings can be large or run the other way;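 note: % of control where 0% means no effect; miR-21 action dims this reporter so a rising signal means less miR-21 action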
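Using DMEM plus 10% FBS, HeLa miR-21-FLuc cells are incubated with test compounds (final up to about 40uM) for 48 hours; firefly luciferase signal is then imaged following reagent-mediated lysis.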
Rango complex inh: Rango-importin beta binding inhibition | Q14974 | Rango CFP/YFP FRET sensor + importin beta, 45 min | Potency, µM (titrated, usually from 92.2 µM), inactives show at the highest dose inhibition of complex formation | actives 0.031% (n = 340,000) | AID 540263; active = rising FRET ratio curve, often small or poorly fitted; inconclusive = mostly compound fluorescence or quenching in the first reads; inactive = flat curves in all reads;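 note: potency is the fitted concentration of half-maximal effect; 0% = DMSO wells and 100% = buffer wells lacking importin beta; nearly all actives have a fitted effect of over 15% in size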
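FRET biosensor Rango (snurportin 1 IBB between N-terminal EYFP and C-terminal Cerulean), 50 nM in PBS/1 mM DTT/0.02% Tween-20/0.1% BSA, preincubated 5 min RT with compound; 0.125 microM importin beta added, 45 min RT, CFP/YFP FRET ratio read.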
Rango dissoc inh: prevents RanGTP from dissociating the Rango-importin beta complex | Biochemical FRET Rango-importin beta, RanGTP-induced dissociation | O95149+P62826 | AID 540253 | actives 0.071% (n = 340,000) | Potency, µM (top dose mostly 46.1 µM), for inactives: at the highest dose activity change, negative = inhibition; active means falling FRET ratio curve, often poorly fitted, with flat reads before Ran was added; inconclusive means other falling curves, or compound fluorescence or quenching; inactive means flat or rising ratio curve;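 note: potency is the fitted concentration of half-maximal effect; % of control where 0% means no effect; nearly all actives have a fitted effect of over 45% in size; -100% = wells without RanGTP and RCC1; the record marks most hits as doubtful in a second field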
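Rango/importin beta premix (0.1/0.25 uM final), PBS + 1 mM DTT + 0.02% Tween-20 + 0.1% BSA; cpd 5 min RT; FRET pre-read; + RanGTP-RCC1 (0.6 uM Ran, 2 mM GTP, 0.2 uM RCC1); 45 min RT; FRET post-read, ex 430, em 486/530 nm.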
GLA inh pH 4.5: inhibitors of human alpha-galactosidase A at pH 4.5; purified enzyme, 4-MU-alpha-Gal fluorescence, pH 4.5; activity change, negative = inhibition, % at 105 µM; 230,000 tested, under 10 active; AID 1467; P06280; inconclusive = small, poorly fitted or top-dose-only inhibition, or a rising curve; inactive = flat fitted curve, though single readings scatter; no compound was filed as active;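 note: 0% = full activity with enzyme and -100% = basal without enzyme; dose as in the result columns while the protocol names 77 µM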
Target sequence (P06280 whole entry, looked up): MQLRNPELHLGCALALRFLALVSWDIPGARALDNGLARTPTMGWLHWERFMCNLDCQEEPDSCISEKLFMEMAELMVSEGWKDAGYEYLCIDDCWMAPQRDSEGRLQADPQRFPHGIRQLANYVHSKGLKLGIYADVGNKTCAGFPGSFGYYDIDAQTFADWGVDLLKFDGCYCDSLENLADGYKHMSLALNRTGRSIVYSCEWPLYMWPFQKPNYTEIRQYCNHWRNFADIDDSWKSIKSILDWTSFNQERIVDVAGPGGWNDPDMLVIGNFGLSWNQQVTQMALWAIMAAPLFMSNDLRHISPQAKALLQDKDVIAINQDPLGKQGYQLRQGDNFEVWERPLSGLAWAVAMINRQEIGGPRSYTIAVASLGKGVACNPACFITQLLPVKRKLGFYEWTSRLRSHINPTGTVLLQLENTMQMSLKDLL
Active calls of the source: *; ? = inconclusive; nt = no result given; [ ] = another dose, or the depositor's remark. An excerpt (hit frequency here may not be typical).

The opening 5 compounds (preview)
SMILES	miR-21 reporter	Rango complex inh	Rango dissoc inh	GLA inh pH 4.5
O=C1CC(c2ccccc2)n2nc(NC(=O)c3ccccc3)nc2N1 (stereo not drawn)	-1%	-0.3%	2%	0
Cc1ccc(S(=O)(=O)N[C@H](C(=O)Oc2ccc3c(C(F)(F)F)cc(=O)oc3c2)c2ccccc2)cc1	-8%	?	?	7
CN(Cc1ccccc1)C(=O)CN1C(=O)C2C3C=CC(C3)C2C1=O (stereo not drawn)	-4%	-4.4%	-12%	0
CCC1CCCCN1CCCNC(=O)Cn1nc(-c2ccc(C)cc2)ccc1=O (stereo not drawn)	-3%	2.4%	2%	6
Cc1cccc(-c2oc3ccc(-c4ccc5c(c4)OCO5)cc3c2C(=O)OCc2ccc(O)cc2)c1	-2%	-1.0%	6%	nt

The whole of this part, previewed entries included:
SMILES	miR-21 reporter	Rango complex inh	Rango dissoc inh	GLA inh pH 4.5
O=C1CC(c2ccccc2)n2nc(NC(=O)c3ccccc3)nc2N1 (stereo not drawn)	-1%	-0.3%	2%	0
Cc1ccc(S(=O)(=O)N[C@H](C(=O)Oc2ccc3c(C(F)(F)F)cc(=O)oc3c2)c2ccccc2)cc1	-8%	?	?	7
CN(Cc1ccccc1)C(=O)CN1C(=O)C2C3C=CC(C3)C2C1=O (stereo not drawn)	-4%	-4.4%	-12%	0
CCC1CCCCN1CCCNC(=O)Cn1nc(-c2ccc(C)cc2)ccc1=O (stereo not drawn)	-3%	2.4%	2%	6
Cc1cccc(-c2oc3ccc(-c4ccc5c(c4)OCO5)cc3c2C(=O)OCc2ccc(O)cc2)c1	-2%	-1.0%	6%	nt
Cc1cnc(NC(=O)C2CC(=O)N(c3ccc4c(c3)OCCO4)C2)s1 (stereo not drawn)	nt	0.8%	12%	nt
CC(C)(C)N=C1NN=C(c2ccc(Cl)cc2)CS1	-19%	-0.1%	13%	-2
CSc1cccc(NC(=O)c2ccccn2)c1	-42%	nt	nt	8[21.1 µM]
CN(C(=O)c1ccc(NC(=O)Cc2cccc([N+](=O)[O-])c2)cc1)C1CC1	nt	1.3%	16%	nt
COc1ccc(C(=O)N2CCN(c3cccc(Cl)c3)CC2)cc1	-11%	-1.2%	-16%	-1
Cc1cc(-c2onc(C)c2C(N)=O)no1	2%	0.3%	6%	-3
CC(/C=C1\SC(=S)N(C(C(=O)O)c2ccccc2)C1=O)=C\c1ccccc1 (stereo not drawn)	5%	-4.4%	12%	-10
COc1ccc(CN(C)C(C)C(=O)N(C)CC(=O)Nc2ccc(C)cc2)cc1F (stereo not drawn)	nt	4.8%	-9%	nt
COC(=O)[C@]1(Cc2ccccc2)N[C@H](CN(C)C(=O)COc2ccccc2)[C@@H]2C(=O)N(C)C(=O)[C@@H]21	nt	-1.2%	-14%	nt
COc1ccc(-c2ccc(OC)c([C@H]3[C@H]4C=CC[C@@H](C)[C@@H]4C(=O)N3Cc3ccccc3)c2)cc1C	-8%	?	-18%	3

Next section, starting with the last 7 of the part before.
SMILES	miR-21 reporter	Rango complex inh	Rango dissoc inh	GLA inh pH 4.5
CN(C(=O)c1ccc(NC(=O)Cc2cccc([N+](=O)[O-])c2)cc1)C1CC1	nt	1.3%	16%	nt
COc1ccc(C(=O)N2CCN(c3cccc(Cl)c3)CC2)cc1	-11%	-1.2%	-16%	-1
Cc1cc(-c2onc(C)c2C(N)=O)no1	2%	0.3%	6%	-3
CC(/C=C1\SC(=S)N(C(C(=O)O)c2ccccc2)C1=O)=C\c1ccccc1 (stereo not drawn)	5%	-4.4%	12%	-10
COc1ccc(CN(C)C(C)C(=O)N(C)CC(=O)Nc2ccc(C)cc2)cc1F (stereo not drawn)	nt	4.8%	-9%	nt
COC(=O)[C@]1(Cc2ccccc2)N[C@H](CN(C)C(=O)COc2ccccc2)[C@@H]2C(=O)N(C)C(=O)[C@@H]21	nt	-1.2%	-14%	nt
COc1ccc(-c2ccc(OC)c([C@H]3[C@H]4C=CC[C@@H](C)[C@@H]4C(=O)N3Cc3ccccc3)c2)cc1C	-8%	?	-18%	3
O=C(CSc1nnc(-c2ccco2)o1)c1ccc[nH]1	-51%	-0.3%	-19%	-16
O=C(O)CSCc1nc2scc(-c3ccccc3)c2c(=O)[nH]1	-2%	1.4%	1%	-6
CCn1c(CCC(=O)N(C)CC(=O)Nc2cccc(F)c2)nc2cc(S(=O)(=O)N(C)C)ccc21	nt	?	-8%	nt
Cc1nc(C)c(-c2nnc(-c3cccc(S(=O)(=O)N(C)C)c3)o2)cc1C(=O)NN	0%	1.5%	-1%	nt
COc1cccc2cc(C(=O)NC3CC(C)(C)NC(C)(C)C3)c(=O)oc12	nt	1.7%	-1%	nt
O=C(c1nc2n(n1)C(c1ccc(Cl)cc1)C=C(c1ccccc1)N2)N1CCOCC1 (stereo not drawn)	-18%	?	?	-3
CCCCC(c1nnnn1CS(=O)(=O)c1ccc(C)cc1)N1CCN(c2ccccc2)CC1 (stereo not drawn)	-5%	1.7%	-10%	-3
O=C(N/N=C/c1oc(O)c2ccccc12)c1ccccc1	-41%	-2.2%	3%	-1
CC(=O)Nc1ccc(NC2CCCCC2NS(=O)(=O)c2ccc(Cl)cc2)cc1 (stereo not drawn)	16%	-2.3%	-3%	nt
O=C(CN1CCCCCC1=O)N1CCN(S(=O)(=O)c2cccs2)CC1	-3%	-0.2%	-10%	-2
Nc1nc(SCC(=O)Nc2ccc3c(c2)OCO3)n[nH]1	-4%	2.6%	-4%	0
COc1ccc(C(NC(=O)C(C)(C)C)NC(=O)C(C)(C)C)cc1	-1%	0.5%	0%	3
COc1ccc(OC)c(NC(=O)c2cccnc2Sc2ccccc2)c1	-12%	3.4%	-16%	-7
C/C(=N\NC(=O)c1ccccc1)c1ccc(N2CCOCC2)cc1	-49%	0.2%	-11%	-22
Cc1ccc(Cl)cc1NC(=O)CNCC(c1ccccc1)N(C)C (stereo not drawn)	-3%	-0.7%	17%	nt
CCN1CCN(C(=O)Nc2cccc(C(F)(F)F)c2)CC1	-10%	2.5%	-8%	-28
O=C(Nc1ccc(F)cc1)c1nc2c(nnn2Cc2cccc3ccccc23)c(=O)[nH]1	-10%	-1.9%	15%	0
Cc1cccc(NC(=O)NNC(=O)c2sccc2-n2cccc2)c1	1%	1.3%	7%	-8
Cc1cc(C(F)(F)F)c(C#N)c(SCC(=O)Nc2nc3cc(Br)ccc3s2)n1	-62%	?	?	-3
O=C(Nc1ccc2[nH]ncc2c1)c1ccc(F)cc1	-14%	-6.3%	-2%	nt
C#CCOCCOCCOCCNc1nc(N2CCN(C(=O)[C@H](CCCCN)n3cc([C@@H](N)CC(N)=O)nn3)CC2)nc(N2CCN(C(=O)[C@H](CCCCN)n3cc([C@@H](N)CC(N)=O)nn3)CC2)n1	nt	6.3%	1%	nt
O=C(CS(=O)(=O)Cc1ccccc1)Nc1ccccc1Cl	-18%	5.6%	7%	6
NC(=O)c1ccc(NC(=O)CSc2nncn2-c2ccccc2)cc1	-2%	-0.7%	11%	nt
COc1ccccc1N1CCN(C(=O)CCc2c[nH]c3ccccc23)CC1	-5%	0.2%	-5%	2
COc1ccc(NS(=O)(=O)c2cc(NC(=O)c3ccncc3)ccc2N2CCOCC2)cc1	-9%	6.2%	22%	-3
O=[N+]([O-])c1ccccc1S(=O)(=O)NCc1cccnc1	3%	1.5%	-19%	-22
CCOC(=O)c1c(C)[nH]c(C(=O)N/N=C/c2cccc(OC)c2)c1C	-4%	2.4%	7%	-5
CCOCCCNC(=O)c1ccc(-n2c(=S)[nH]c3ccccc3c2=O)cc1	0%	-7.6%	-23%	2
CCOC(=O)Oc1c(OC)cc(C(=O)O[C@@H]2C[C@@H]3CN4CCc5c([nH]c6cc(OC)ccc56)[C@H]4C[C@@H]3[C@H](C(=O)OC)[C@H]2OC)cc1OC	nt	?	?	nt
O=C(NC1CC1)C1=NOC(CNc2ncc(C(F)(F)F)cc2Cl)C1 (stereo not drawn)	-6%	-1.3%	0%	-1
COCc1ccc(-c2c(-c3ccsc3)oc(=O)c3cc(OC)c(OC)cc23)cc1	nt	0.1%	1%	nt
O=C(Nc1ccc2oc(=O)ccc2c1)c1cccnc1	0%	0.0%	0%	-4
CCCCC(=O)Nc1nnc(C2=COCCO2)o1	-3%	-0.5%	15%	5
O=C1c2ccccc2NC(c2cccc(Cl)c2)N1N=C1CCCCCC1 (stereo not drawn)	-33%	-0.4%	-2%	-2
CC1(CCc2ccccc2)NC(=O)N(CC(=O)Nc2ccccc2)C1=O (stereo not drawn)	-38%	-1.6%	11%	-18
CCC(C)N(C(=O)CSc1nnc(NC(C)C)s1)C1CCS(=O)(=O)C1 (stereo not drawn)	nt	3.9%	21%	nt
Cc1ccc(S(=O)(=O)Nc2cccc(-c3ccc(N4CCCCCC4)nn3)c2)cc1	-54%	?	-21%	nt
COc1ccc(CNC(=O)CN(C)S(=O)(=O)c2ccc(Br)s2)cc1	0%	-1.0%	-4%	nt
COC(=O)CP(=O)(c1ccccc1)c1ccccc1	0%	0.3%	3%	7
CCOc1c(Br)cc(C2NS(=O)(=O)N=C3CCCCCN32)cc1OC (stereo not drawn)	0%	-0.2%	33%	6
Cc1ccccc1Nc1nc(Nc2ccccc2C)nc(SC2=NCCS2)n1	21%	0.4%	0%	-2
C=CCNC(=O)/C(=C/c1ccco1)NC(=O)c1ccc(Br)o1	-5%	?	-17%	0
CCN(C[C@H]1N[C@@](CC)(C(=O)OC)[C@H]2C(=O)N(C)C(=O)[C@@H]12)S(=O)(=O)c1ccc(C(C)(C)C)cc1	nt	4.5%	-1%	nt
COCCN(C(=O)COC(=O)C1COc2ccccc2O1)c1c(N)n(Cc2ccccc2)c(=O)[nH]c1=O (stereo not drawn)	nt	?	0%	nt
COC(=O)CCN(C(=O)c1ccc2c(c1)OCO2)c1ccccn1	-2%	1.5%	-5%	0
Cc1ccc(NC(=O)Cn2c(O)c(N=NC(=O)c3cc4ccccc4cc3O)c3ccccc32)cc1	-18%	1.4%	0%	3
COc1ccc(-c2cc3ccccc3cn2)cc1	nt	-0.1%	1%	nt
CCn1cnc2cc(NCc3nc4ccccc4n3C)ccc21	-34%	4.6%	0%	-5
Cc1onc(-c2ccccc2Cl)c1C(=O)Nc1ccc(OCC(=O)N2CCOCC2)cc1	-4%	1.0%	8%	6
CC(C)(C)OC(=O)N1CCC[C@H]1C(=O)Nc1ccc(C#N)cc1	2%	2.6%	-1%	nt
COc1cccc(/C=N/NC(=O)c2cc3c(OC)cccc3[nH]2)c1O	22%	1.4%	-1%	3
COc1cccc(NC(=O)CN(c2ccccc2OC)S(=O)(=O)c2cccs2)c1	nt	-4.1%	17%	nt
CCOC(=O)c1oc2ccccc2c1NC(=O)C1CCCCC1	-3%	0.7%	0%	-1
N/C(COc1ccc(Cl)cc1Cl)=N\O	-9%	1.6%	4%	0
Cc1nnc(SCC(=O)NNC(=O)c2ccccc2)n1Cc1ccccc1	nt	-2.9%	3%	nt
COc1ccc(C(=O)c2oc3ccc(Br)cc3c2NC(C)=O)cc1	1%	0.3%	19%	2
CCOc1ccc2nc(NC(=O)CN3C(=O)NC4(CCCC4)C3=O)sc2c1	nt	0.6%	-1%	nt

Some values from the list:
In GLA inh pH 4.5, `COc1ccc(C(=O)c2oc3ccc(Br)cc3c2NC(C)=O)cc1` shows 2
In miR-21 reporter, `Cc1ccc(NC(=O)Cn2c(O)c(N=NC(=O)c3cc4ccccc4cc3O)c3ccccc32)cc1` shows -18%
